Sfp inh = qHTS Assay for Inhibitors of Bacillus subtilis Sfp phosphopantetheinyl transferase (PPTase); 4'-phosphopantetheinyl transferase ffp (Bacillus subtilis), Q9F4F7; Biochemical Sfp PPTase activity, qHTS; 310,000 compounds, 3.5% hits; Potency, µM, without a hit: max response, negative = inhibition, actives largely listed as inhibitors; AID 1490, 2009; active = well fitted inhibition curve with a large enough effect; inconclusive = small, poorly fitted or top-dose-only effect, or another doubt; inactive = no such curve, though single readings can be large or run the other way;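 note: the enzyme is Sfp with the accession as filed and its product quenches rhodamine fluorescence; potency is the fitted concentration of half-maximal effect; 0% = enzyme reaction without inhibitor and -100% = no enzyme wells; top concentration of the series not given in the record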
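Reaction rates are the 30-min fluorescence difference (ex 525, em 598 nm) in wells containing 15 nM Sfp, 5 uM rhodamine-CoA and 12.5 uM BHQ-2-YbbR at pH 7.6 with 10 mM MgCl2.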
TRPV1 potentiator = HTS Assay for Compounds that Act as Potentiators of the Vanilloid Receptor 1 | Transient receptor potential cation channel subfamily V member 1 (Homo sapiens), Q8NER1 | 320,000 compounds, 0.02% hits | TRPV1-expressing cells, Fluo-8 calcium influx, capsaicin EC20 potentiation; host cell line not named in the record; control for the full effect not named in the record | potentiation, % at 8.33 µM | AID 540277, 2011; active means potentiation above 80%; inconclusive means 30% to 80%; inactive means below 30%; note: 0% is about no effect
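Cells expressing TRPV1 were dye-loaded with Fluo-8 and read kinetically: 10 s baseline, 3 min after compound (agonist portion), then 2 min after EC20 capsaicin (allosteric enhancer portion). Calcium-bound dye fluorescence at 480/520 nm.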
ClpP mod = qHTS Assay for Activators of ClpP. ATP-dependent Clp protease proteolytic subunit (Bacillus subtilis (strain 168)), P80244. purified B. subtilis ClpP, FRET peptide cleavage, 20 min. Potency, µM (titrated, usually from 57.5 µM), for the others: at the highest dose activity change, negative = active. 340,000 compounds, 1.9% hits. AID 651965, 2013; active = well fitted falling curve with a large enough effect; inconclusive = small, poorly fitted or top-dose-only effect; inactive = no such curve, though single readings can be large or run the other way; note: potency is the fitted concentration of half-maximal effect; the source files actives as falling curves though it sought activators and does not explain the sign; nearly all actives have a fitted effect of over 65% in size; many hits overshoot -100%
Target sequence (P80244 whole entry, looked up): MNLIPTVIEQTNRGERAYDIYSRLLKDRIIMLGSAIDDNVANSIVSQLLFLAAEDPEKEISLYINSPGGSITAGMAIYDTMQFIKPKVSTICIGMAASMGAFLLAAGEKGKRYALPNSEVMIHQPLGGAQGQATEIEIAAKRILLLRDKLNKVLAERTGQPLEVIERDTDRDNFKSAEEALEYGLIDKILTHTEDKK
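FRET quenching reversal measured ClpP activation: 10 microg/mL B. subtilis ClpP at pH 8 with the FRET-FV decapeptide, read at 430 nm after 320 nm excitation. The 20-min minus 0-min signal was scaled between DMSO/no-enzyme wells and ADEP (5.8 microM final).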
Menin-MLL FL inh = qHTS Assay for Inhibitors Targeting the Menin-MLL Interaction in MLL Related Leukemias: Competition With Fluorescein Labeled MLL-derived Peptide | Fluorescence polarization, fluorescein-MLL peptide displacement from menin | FP activity change, % at 61.4 µM | 290,000 tested, under 10 active | AID 1766, 2009; inconclusive = falling polarisation curve, or a change in total fluorescence; inactive = total fluorescence flat and polarisation flat or rising; no compound was filed as active; the % refers to the polarisation; negative = inhibition;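 note: % of control where 0% means no effect; inhibitors lower the polarisation; unlabelled MLL peptide was the positive control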
D2 potentiator = Beta-Arrestin HTS for Positive Allosteric Modulators of the Human D2 Dopamine Receptor: Potentiators; D(2) dopamine receptor (Homo sapiens), P14416; DiscoveRx D2 beta-arrestin cells, luminescence, 90 min; 100% = 57 uM dopamine signal; potentiation, % (no concentration beside the values); 360,000 compounds, 0.23% hits; AID 624464, 2012; active = potentiation of 50% or more; inconclusive = 30% to 50%; inactive = 30% or less;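 note: compound concentration not given in the record; tested on top of an EC20 dose of dopamine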
Target sequence (P14416 whole entry, looked up): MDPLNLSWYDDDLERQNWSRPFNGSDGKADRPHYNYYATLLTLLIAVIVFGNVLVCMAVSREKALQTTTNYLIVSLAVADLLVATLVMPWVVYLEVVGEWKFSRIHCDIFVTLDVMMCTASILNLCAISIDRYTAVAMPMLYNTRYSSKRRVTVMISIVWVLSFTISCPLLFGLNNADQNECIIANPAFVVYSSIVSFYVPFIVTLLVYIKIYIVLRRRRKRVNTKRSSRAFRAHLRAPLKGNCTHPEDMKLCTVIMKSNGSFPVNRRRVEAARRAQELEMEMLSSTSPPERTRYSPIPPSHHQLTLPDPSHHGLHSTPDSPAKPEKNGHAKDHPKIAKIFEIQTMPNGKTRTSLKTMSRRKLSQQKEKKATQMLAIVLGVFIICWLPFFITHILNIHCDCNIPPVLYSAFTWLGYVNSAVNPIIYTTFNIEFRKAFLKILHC
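D2 cells co-treated with compound plus 50 nM dopamine (EC20) for 90 min at 37 deg C to detect potentiation. Beta-arrestin recruitment was read as enzyme-fragment luminescence after 1 h at ambient temperature. Full response was set by 57 uM dopamine.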
gsp agonist = qHTS for Agonist of gsp, the Etiologic Mutation Responsible for Fibrous Dysplasia/McCune-Albright Syndrome: qHTS | gsp mutant cells, cAMP HTRF, 30 min; control for the full effect not named in the record | Potency, µM (doses to about 76.9 µM), inactives show top-dose activation (cAMP increase), hits mostly activators | 340,000 compounds, 0.13% hits | AID 624287, 2012; active = well fitted activation curve with a large enough effect; inconclusive = small, poorly fitted or top-dose-only effect, or another doubt; inactive = no such curve, though single readings can be large or run the other way; cell line not stated here;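 note: phosphodiesterase inhibitor Ro 20-1724 added with compounds to block cAMP breakdown; potency is the fitted concentration of half-maximal effect; nearly all actives have a fitted effect of over 60% in size; about a fifth of the inactives were tested at one dose only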
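Cells in DMEM/10% FBS with G418 were pretreated with compounds in DMSO plus […] (300 uM stock) for 30 min at 37C. cAMP was measured by HTRF (cAMP-d2 plus anti-cAMP antibody-K) after 30 min at room temperature.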
gsp antagonist = qHTS for Antagonists of gsp, the Etiologic Mutation Responsible for Fibrous Dysplasia/McCune-Albright Syndrome: qHTS; 340,000 compounds, 0.4% hits; AID 624288, 2012; gsp-mutant cells, cAMP HTRF, 30 min; control for the full effect not named in the record; Potency, µM (series often up to 76.9 µM), without a hit: at the highest dose activity change, negative = inhibition, hits mostly inhibitors; active = falling curve of any shape with a large fitted effect; inconclusive = falling curve, mostly with a smaller effect; inactive = flat or rising curve; cell line not stated here;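 note: intracellular cAMP measured with PDE inhibitor Ro 20-1724 present during compound exposure; potency is the fitted concentration of half-maximal effect; % is set by controls: 0 for no effect and ±100 for the full control effect; nearly all actives have a fitted effect of over 65% in size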
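Cells, 2000/well, grown 16–24 h in DMEM 10% FBS with 0.5 mg/ml G418, then compounds plus […] (300 uM addition stock), 30 min at 37C. cAMP read by HTRF (cAMP-d2 and anti-cAMP antibody-K in lysis buffer) after 30 min RT.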
Starred values were filed as active, the others as inactive; ? = inconclusive; . = not tested or not shown; & = joins results of further samples; [ ] = dose if it differs, or a comment.

Every second line gives: Sfp inh	D2 potentiator	Menin-MLL FL inh	gsp antagonist	TRPV1 potentiator	ClpP mod	gsp agonist
- COc1cccc(CNC(=O)CCNS(=O)(=O)c2cccc3nsnc23)c1
→ 6%	-2	-1.6	2%	-5	-3.3%	-52%[inhibitor]
- COc1ccc(Cn2ccnc2SCC(=O)NC2CCCCC2)cc1
→ 1%	-2	.	-2%	-4	-1.9%	?
- COc1ccc(C)cc1NC(=O)C(Sc1nnnn1C)c1ccccc1 (stereo unspecified)
→ 14%	-10	0.3	4%	-3	0.6%	-33%[inhibitor]
- O=S(=O)(Nc1ccccc1N1CCCCC1)c1ccc(F)cc1F
→ 4%	-4	0.8	-12%	-9	.	-6%[15.4 µM]
- O=C(Cc1ccc([N+](=O)[O-])cc1)N/N=C/c1ccccc1F
→ 3%	0	0.6	5%	-14	0.0%	-9%
- Cn1c(=NC(=O)COc2ccccc2)sc2ccccc21
→ 13%	11	2.2	1%	-8	-3.7%	7%
- CC(C)Cn1c(-c2ccco2)nc2c(c(=O)c3ccccc3n2C)c1=O
→ -72%	.	17	.	-18	.	.
- COC(=O)c1ccc(NC(=S)NC(=O)C2CCC2)cc1
→ -4%	2	.	-7%	25	-2.4%	-25%
- C/C=C/c1ccc(OCCCn2cncn2)c(OC)c1
→ ?	-14	1.8	-2%	-13	-9.5%	1%
- COC(=O)c1ccc(OC(=O)CN2C(=O)c3ccccc3C2=O)cc1
→ 10%	75*	-1.5	-4%	-4	-0.1%	-53%[inhibitor]
- COc1ccccc1CNC(=O)CN1C(=O)NC2(CCCC2)C1=O
→ .	0	.	-7%	-10	-0.5%	-3%
- Cn1c(CS(=O)Cc2c(Cl)cccc2Cl)nnc1SCc1c(Cl)cccc1Cl (stereo unspecified)
→ -4%	-11	-2.3	-14%	12	-2.6%	-56%[inhibitor]
- CCCN1CCN(S(=O)(=O)c2cc3c(cc2C)NC(=O)CO3)CC1
→ 4%	-6	3.8	3%	9	1.6%	7%
- OCCN1CCN(c2ncnc3sc4c(c23)CCCC4)CC1
→ ?	-4	1.8	2%	5	-1.1%	23%
- COc1ccc(NS(=O)(=O)c2cccc(C(=O)NNC(=O)CNC(=O)c3cccc(C)c3)c2)cc1
→ 30%	-8	0.1	-6%	-5	-1.7%	0%
- Cc1cc(NC(=O)Nc2cccc(C(F)(F)F)c2)no1
→ 5%	-17	-7.6	-8%	-5	-3.8%	0%
- O=C(Nc1cccc(C(F)(F)F)c1)C1CCCCC1
→ -3%	-15	1.3	-4%	-19	-7.7%	-47%[inhibitor]
- O=[N+]([O-])c1cccc(S(=O)(=O)Nc2cccc(-c3ccc(N4CCCC4)nn3)c2)c1
→ .	17	.	?	12	-2.0%	-6%[15.4 µM]
- CC1=C(C(=O)OC2CCCC2)C(c2ccc(C)o2)C2=C(CC(c3cccs3)CC2=O)N1 (stereo unspecified)
→ ?	-21	9.4	0%	8	-6.1%	-10%
- O=c1[nH]c(CO)nc2c1oc1ccccc12
→ 2%	0	4.3	1%	-1	-20%	-19%
- Cn1nnnc1SCC(=O)Nc1ccccc1[N+](=O)[O-]
→ 16%	7	4.3	1%	0	-4.1%	-6%
- COC(=O)C1=C(C)NC(C)=C(C(=O)OC)C1C(=O)OCCN1C(=O)c2ccccc2C1=O
→ -2%	-5&8	-2.8	2%&0%	-13	7.1µM*	11%&0%
- CCNC(=O)NC(=O)C(C)Oc1ccc(C(=O)OC)cc1 (stereo unspecified)
→ 4%	17	0.7	0%	-2	-2.0%	-47%[inhibitor]
- Cc1noc(C(C)C)c1C(=O)Nc1ccc(-c2nnc3n2CCCCC3)cc1
→ .	2	.	5%	4	-0.9%	?
- Cn1c2ccccc2c2nnc(NN)nc21
→ ?	-2	-1.7	1%	2	-0.7%	?
- CCOc1ccccc1OCC(=O)Nc1nc2ccccc2[nH]1
→ 14%	3	0.6	-2%	1	.	26%[15.4 µM]
- O=C(CCNC(=O)C1CCN(S(=O)(=O)c2ccccc2)CC1)NCc1cccc(Cl)c1
→ 6%	-8	.	3%	-2	1.6%	19%
- Cc1ccc(S(=O)(=O)N2CCN(C(=O)CSc3nc4ccccc4c(=O)[nH]3)CC2)c(C)c1
→ -17%	-2	5.1	?	14	-3.1%	-5%
- CCCc1nnc(SCC(=O)Nc2ccccc2F)o1
→ 22%	-2	4.5	4%	-4	.	-3%[15.4 µM]
- CCN1CCN(c2nc3ccccc3nc2NS(=O)(=O)c2ccc(NC(C)=O)cc2)CC1
→ 9%	-7	.	4%	12	-19%	20%

(list continues)
Every second line gives: Sfp inh	D2 potentiator	Menin-MLL FL inh	gsp antagonist	TRPV1 potentiator	ClpP mod	gsp agonist
- CC(C)(C)NC(=O)CSc1nnc(Cc2ccc3c(c2)OCO3)n1C1CCCCC1
→ 14%	-4	3.0	-4%	-12	0.6%	?
- CCC(=O)Nc1cc(-c2nnc(OC)c3ccccc23)ccc1N1CCOCC1
→ 12%	-8	-0.6	9%	-6	-1.2%	17%
- CCn1c(=O)c2cc(C(=O)NCCC(C)C)sc2c2ccccc21
→ -24%	-18	-0.5	-40%	-11	3.7%	-2%
- O=C(COC(=O)CNC(=O)C1CCCCC1)Nc1ccc(Cl)cc1F
→ 8%	-9	-1.8	-31%	9	.	-9%[15.4 µM]
- COCCn1c(=S)[nH]c2cc(C(=O)NCCc3ccccc3)ccc2c1=O
→ 12%	-6	.	-17%	-25	.	5%
- COc1ccc(CNS(=O)(=O)CCNCc2ccco2)cc1
→ .	-11	.	5%	.	-0.5%	.
- CCC(C)(C)NC(=O)C(c1ccc(O)cc1)N(CCOC)C(=O)CCC(=O)Nc1nccs1 (stereo unspecified)
→ 21%	-2	-1.0	3%	17	.	-11%[15.4 µM]
- Cc1c(C(=O)OCc2nc3ccsc3c(=O)[nH]2)oc2ccccc12
→ .	-1	.	7%	24	-2.3%	4%
- CCOc1ccc(NS(=O)(=O)c2c(C(=O)N3CCCCCC3)c(C)n(C)c2C)cc1
→ 20%	2	5.8	8%	17	0.7%	5%
- CC(C)(C)OC(=O)N1CC=C2C(C#N)=C(N)C(C#N)(C#N)[C@H](c3cccnc3)[C@H]2C1
→ 5%	-25	?	1%	-5	46%	-35%[inhibitor]
- CC(C)(C)NC(=O)C(=O)N/N=C/c1ccc(Br)cc1
→ -2%	8	1.4	0%	-25	-7.2%	2%
- Cc1ccc(Cn2nc(C)c(NC(=O)CCCn3nc(C)c([N+](=O)[O-])c3C)c2C)cc1
→ 9%	6	11	-5%	-22	?	28%
- Cc1nc(NC(=O)COC(=O)C2=NNC(=O)CC2)c(Cl)cc1Cl
→ 10%	-3	-0.9	8%	2	.	-2%[15.4 µM]
- CN(C)C(=O)C1CC(=O)OC12CCCCC2 (stereo unspecified)
→ 13%	7	-1.2	5%	17	-0.6%	9%
- CCN(CC)S(=O)(=O)c1ccc(N2CCCC2)c(NC(=O)c2c(-c3ccccc3)noc2C)c1
→ 8%	-3	.	-15%	-2	.	-3%[15.4 µM]
- COc1ccccc1C(=O)NC1CCCCCCC1
→ 3%	5	5.6	-16%	8	-1.3%	-27%
- CCCCSc1nc(SCC(=O)NCc2ccco2)c2c3c(sc2n1)COC(C)(CC)C3 (stereo unspecified)
→ -16%	-3	4.2	11%	0	-0.6%	20%
- Cc1onc(NC(=O)CSCC(=O)O)c1Br
→ 3%	2	-1.1	2%	-15	.	15%
- Cc1ccc(CNC(=O)C2CCC(CNS(=O)(=O)c3cccc4cccnc34)CC2)cc1 (stereo unspecified)
→ 12%	-18	-2.7	2%	4	1.6%	-1%
- CNC(=S)Nc1cc(OC)c(NC(=O)c2ccco2)cc1OC
→ 4%	-4	-0.9	0%	10	.	-31%[inhibitor]
- C=CCN1CCN(Cc2cnc(Cl)s2)CC1
→ 8%	-21	5.0	9%	-5	-3.8%	4%
- CCOc1ccc(C2C(C#N)=C(N)SC(N)=C2C#N)c(OCC)c1
→ 16µM*	9	?	1%	-6	-2.7%	?
- Cc1ccc(N(C)S(=O)(=O)c2ccc3c(c2)NC(=O)C(C)S3)cc1 (stereo unspecified)
→ 2%	-10	.	-1%	25	-2.8%	23%
- CC(Sc1nc(-c2ccccc2)cc(C(F)(F)F)n1)C(=O)N1CCOCC1 (stereo unspecified)
→ 8%	-5	3.7	-5%	26	-1.4%	0%
- COc1ccccc1CNC(=O)CNC(=O)c1ccc(Br)o1
→ 19%	-18	.	5%	3	-1.1%	3%[15.4 µM]
- C[C@H](O)[C@@H]1C(=O)N2CCc3c([nH]c4ccccc34)[C@@H]2C[C@@H]1N(C)C(=O)Nc1cc(Cl)cc(Cl)c1
→ .	-2	.	.	.	4.5%	2%
- COCCNC(=O)C(c1ccco1)N(C(=O)Cn1nnc2ccccc21)c1cc(C)ccc1C (stereo unspecified)
→ 16%	-2	6.1	-1%	.	0.6%	-22%
- O=C(NCCc1nc2ccccc2[nH]1)C1CCC(=O)N(CCc2cccc(F)c2)C1 (stereo unspecified)
→ 18%	-12	1.0	8%	-3	?	-5%[15.4 µM]
- CCOC(=O)COn1c(-c2cccc(Cl)c2)nc2ccc([N+](=O)[O-])cc21
→ -1%	9	3.0	-18%	-4	-1.7%	-6%
- COc1ccccc1/C=C/C(=O)NNC(=O)c1cccs1
→ -6%	-1	-1.9	-5%	-4	.	24%

Assay outcomes as filed in PubChem.
